# Mtb H37Rv = Mycobacterium tuberculosis H37Rv growth inhibition, cell based, confirmatory dose response (AID 1949). 100,000 compounds, 1.6% hits. most inactive calls were filed without a number and no value below 0 was filed. one-dose inhibition, % at 10 µg/mL; IC50 in µg/mL for titrated hits;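 active = confirmed in a dose series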;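 also: bacteria grown 7 days with compound before Alamar blue readout; 0% = untreated bacteria and 100% = reference antibiotic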
# The depositor's hits bear a star; i = inactive. Not all compounds are listed, so the mix of outcomes need not match the whole.
SMILES | Mtb H37Rv
CC1CCc2c(sc3ncn(Cc4ccc(C(=O)O)cc4)c(=O)c23)C1 (stereo not drawn) | i
Cc1nc(SCc2cccc(Cl)c2)nc2c1CCCC2 | 40%
COc1cccc(OC)c1C(=O)NC(=S)Nc1nc2ccccc2s1 | i
CCOc1cc2c3c(c1)C1(OCCO1)C(=O)N3C(C)(C)CC2C (stereo not drawn) | i
COC(=O)CN(c1ccc(Oc2ccccc2)cc1)S(C)(=O)=O | i
CC(C)(C)c1ccc(OCc2nc(-c3ccncc3)no2)cc1 | 2%
COc1ccc(-c2cc(=O)oc3cc(OCC(=O)Nc4c(C)cccc4C)ccc23)cc1 | i
CCN(c1ccccc1)S(=O)(=O)c1ccc2[nH]c(=O)[nH]c2c1 | i
Cc1ccc(OCCn2ccnc2)c(Br)c1 | 31%
Cc1ccc(Cl)c(OCC(=O)N2CCN(c3ncccn3)CC2)c1 | i
O=C(CCn1cnc2ccccc2c1=O)Nc1cccc(F)c1 | i
CCOc1ccc(NC2=NC(C(=O)NCc3ccccc3)CC(=O)N2)cc1 (stereo not drawn) | i
O=C(Nc1nccs1)C(c1ccccc1)N1CCOCC1 (stereo not drawn) | i
Cc1ccc(C(=O)NC(=S)Nc2cccc(C(=O)O)c2)cc1 | 2%
CC(=O)C1=C(C)NC(SCC(=O)NCc2ccccc2)=C(C#N)C1c1ccc(Cl)cc1 (stereo not drawn) | i
CCCOc1ccccc1NC(=O)Nc1ccc(Cl)c(Cl)c1 | 1.7µg/mL*
Clc1ccc(OCCCn2ccnc2)cc1Cl | 4µg/mL*
COc1ccc(/C=N/N2CCN(C)CC2)cc1 | i
CCOC(=O)c1ccccc1OC(=O)CSc1ccccc1[N+](=O)[O-] | i
C=CS(=O)(=O)c1ccc(C(C)(C)C)cc1 | i
COc1cc(Cl)c(C)cc1NC(=O)c1ccccc1[N+](=O)[O-] | i
Cc1ccc(SC(C)C(=O)N2CCCC2)cc1 (stereo not drawn) | 2%
COC(=O)CSc1cc(C)nc(SC)n1 | i
Cc1cccc(C(=O)Nc2ccc(S(=O)(=O)N3CCCCCC3)cc2)c1 | i
CS(=O)(=O)CCC(C(=O)N1CCCC1)N1C(=O)c2cc(Cl)c(Cl)cc2C1=O (stereo not drawn) | i
CCOc1cc(CNc2ccc3c(c2)OCCO3)cc(Br)c1OCC(N)=O | i
CCOc1ccc(C(=O)NCc2ccccc2)cc1Cl | i
O=C(C1CCN(Cc2ccc3c(c2)OCO3)CC1)N(CCc1ccccc1)Cc1ccccc1 | 1%
Cc1ccccc1N1C(=O)NC(=O)/C(=C\C=C\c2ccccc2[N+](=O)[O-])C1=O | i
CCOc1ccc(Cl)cc1/C=C(/C#N)c1ccc2c(c1)OCO2 | i
COc1ccc(CC(=O)O/N=C(\N)c2ccncc2)cc1OC | 0%
CC(=O)C1=C(C)Nc2ncnn2C1c1cccc(O)c1 (stereo not drawn) | 1%
Nc1ncnc(Nc2ccc(Br)cc2)c1[N+](=O)[O-] | i
C=CCn1c2ccccc2c2nnc(SCC(=O)Nc3ccc([N+](=O)[O-])cc3)nc21 | 2%
Oc1ccc(CN2CCN(c3ccccn3)CC2)c2cccnc12 | i
Nc1nnc(SCc2ccc(F)cc2Cl)s1 | i
Cn1nnnc1SCC(=O)c1ccc(F)cc1 | i
CCN(CC)c1ccc(NC(=O)c2cc(OC)c(OC)c(OC)c2)c(C)c1 | i
CCCCC1(Cc2ccc([N+](=O)[O-])cc2)C(=O)N(c2ccccc2)N(c2ccccc2)C1=O | 22%
CCc1nc(SCC(=O)Nc2cccc(C(F)(F)F)c2)c(C#N)cc1C | 2%
COC(=O)c1ccc(OC(=O)CSc2ccccc2[N+](=O)[O-])cc1 | i
COc1ccc(NC(=O)CC2C(=O)N(c3ccccc3)C(=S)N2Cc2ccc3c(c2)OCO3)cc1 (stereo not drawn) | i
Cc1ccc(C(CC(=O)N2CCOCC2)c2ccco2)cc1 (stereo not drawn) | i
COc1cc(C2NC(=O)NC(C)=C2C(=O)OCC2CCCO2)ccc1O (stereo not drawn) | i
COc1cc(-c2nc3nc(C)cc(C)n3n2)cc(OC)c1OC | i
Cc1cc(C)cc(OCC(=O)Nc2ncccn2)c1 | i
Cc1ccccc1NC(=S)NC(=O)c1cccc(Cl)c1 | 2%
Cc1ccc(OCC(=O)Nc2ccc(S(=O)(=O)Nc3ccccn3)cc2)c(Br)c1 | i
O=C(Nc1cccc(F)c1)C1CCN(C(=O)Cc2ccccc2)CC1 | 7%
COc1ccc(-c2nnc(SCC(=O)c3ccc(C)o3)o2)cc1 | 31%
CCc1ccc(C(=O)NC(Cc2ccccc2)C(=O)N2CCN(c3ccccn3)CC2)cc1 (stereo not drawn) | 4%
Cc1ccc2nc(NC(=O)c3c(-c4c(Cl)cccc4Cl)noc3C)sc2c1 | 17%
CCCCOc1ccc(C(=O)N2CC(C)OC(C)C2)cc1 (stereo not drawn) | 3%
COc1ccccc1C/C(N)=N/OC(=O)c1ccccc1Cl | i
CC(C)(C)Nc1nc(=S)nc(N2CCOCC2)[nH]1 | i
Cc1cc(F)ccc1NCc1cccnc1 | i
COc1ccc(C(=O)NC(=S)Nc2ccc(NC(=O)c3cccc(C)c3)cc2)cc1[N+](=O)[O-] | 0%
CCn1c(Cc2ccc(OC)cc2)nnc1SCC(=O)Nc1nccs1 | i
COc1ccc(NC(=O)NC(=O)C(F)(F)F)cc1 | i
O=C(CCC1CCCCC1)Nc1cccc([N+](=O)[O-])c1 | i

# An excerpt from above in order of count of non-hydrogen atoms, high to low.
SMILES | Mtb H37Rv
CCCCOc1ccc(C(=O)N2CC(C)OC(C)C2)cc1 (stereo not drawn) | 3%
O=C(CCC1CCCCC1)Nc1cccc([N+](=O)[O-])c1 | i
Cc1cc(C)cc(OCC(=O)Nc2ncccn2)c1 | i

# (more compounds)
SMILES | Mtb H37Rv
Cc1ccc(NC(=O)c2cccc3ccccc23)cc1[N+](=O)[O-] | i
CCC(Oc1ccccc1)C(=O)N1CC(C)OC(C)C1 (stereo not drawn) | i
COc1cccc2cc(C(=O)CC3(O)C(=O)N(C)c4ccc(Br)cc43)c(=O)oc12 (stereo not drawn) | i
NC(=O)c1cc2c(n(-c3ccccc3)c1=O)CCCC2=O | 2%
COc1ccc(S(=O)(=O)N2CCC(C(=O)N3CCN(c4cccc(Cl)c4)CC3)CC2)cc1 | 17%
COC(=O)c1ccccc1NC(=O)Cn1c(=O)n(C)c(=O)c2ccccc21 | 2%
O=C(c1cccc(C(F)(F)F)c1)N1CCc2ccccc21 | i
Cn1nc(-c2ccc(N3CCN(CCO)CC3)c([N+](=O)[O-])c2)c2ccccc2c1=O | i
Cc1cc(C(=O)Nc2ccccc2N2CCCCC2)ccc1[N+](=O)[O-] | i
Oc1ccc(Nc2ncnc3sc4c(c23)CCCC4)cc1 | i
CCN(CC)C(=O)c1sc(NC(=O)c2cc(-c3ccncc3)nc3c(C)cccc23)c(C#N)c1C | 3%
CCCC(=O)Nc1sc2c(c1C(=O)Nc1ccccc1)CCC2 | i
Cc1ccc(C(=O)NC(=S)NCc2ccccc2)cc1Br | i
COc1ccc(C(=O)NC(=S)Nc2ccc(CN3CCCCC3)cc2)cc1Cl | 4%
CC(C)Oc1cccc(C(=O)Nc2ccc(F)c(Cl)c2)c1 | i
COC(=O)c1cccc(NC(=O)c2ccc(C(C)(C)C)cc2)c1C | i
COC(=O)c1ccc(C(=O)OC)c(NS(=O)(=O)c2ccc(OC)c(Cl)c2Cl)c1 | i
O=C(OCc1cccc2ccccc12)C1CC(=O)N(c2ccccc2)C1 (stereo not drawn) | i
CCOc1ccc2nc(NC(=O)c3cc(Br)cc(C)c3OC)sc2c1 | i
COC(=O)c1sc(N2C(=O)C(O)=C(C(=O)c3cccs3)C2c2ccccc2F)nc1C (stereo not drawn) | i
CC(NCC(O)Cn1c2ccccc2c2ccccc21)C(=O)O (stereo not drawn) | i
CCCNC(=O)c1ccc(CSc2ccccc2)cc1 | 18%
O=C(Nc1cccc([N+](=O)[O-])c1)C1CCN(S(=O)(=O)c2cc(Cl)ccc2Cl)CC1 | 1%
Cc1cc(OCCN2CCCC2)ccc1[N+](=O)[O-] | i
Cc1ccc(C(=O)Nc2ccccc2)cc1 | i
O=C(c1ccc(-c2ccccc2)cc1)c1ccccc1C(=O)N1CCOCC1 | 1%
CCc1ccccc1NC(=O)CN(C1CCCCC1)S(=O)(=O)c1ccc(Br)cc1 | 0%
CCOc1ccccc1NC(=O)CCOc1cccc(C)c1 | i
O=C(CC1CCCCC1)Nc1cccc2c1CCCC2 | i
C=CCNC(=O)C1CC(=O)N(c2ccc(OCC(=O)NCc3ccccc3)cc2)C1 (stereo not drawn) | i

# Filtered by structure, the entries above containing a tert-butyl group
SMILES | Mtb H37Rv
CC(C)(C)c1ccc(OCc2nc(-c3ccncc3)no2)cc1 | 2%
C=CS(=O)(=O)c1ccc(C(C)(C)C)cc1 | i
CC(C)(C)Nc1nc(=S)nc(N2CCOCC2)[nH]1 | i
COC(=O)c1cccc(NC(=O)c2ccc(C(C)(C)C)cc2)c1C | i

# Next section.
SMILES | Mtb H37Rv
Cc1ccc(NC(=O)c2cc(N3C(=O)CCC3=O)ccc2N2CCCCC2)cc1 | i
Cc1cc(C)n(-c2ccc(Cl)c(C(=O)O)c2)n1 | 2%
Cc1ccc(C(=O)N2CCCc3ccccc32)cc1Br | i
CCOc1ccc(C(=O)Nc2ccc(N3CCN(C)CC3)cc2)cc1[N+](=O)[O-] | 19%
Cc1ccccc1NC(=O)CSC1CC(=O)N(c2cc(Cl)cc(Cl)c2)C1=O (stereo not drawn) | i
O=S(=O)(c1ccc(Cl)cc1)N1CCC(N2CCCCC2)CC1 | i
O=C(OCc1ccccn1)c1cccc(COc2ccccc2Cl)c1 | i
Cc1nc(N)sc1-c1csc(Nc2cccnc2)n1 | i
COc1cc([N+](=O)[O-])ccc1NC(=O)c1ccc(S(=O)(=O)N(C)C)cc1 | 1%
CCc1ccc(N(CC(=O)Nc2cccc([N+](=O)[O-])c2)S(=O)(=O)c2ccccc2)cc1 | i
C=CCOc1cccc(C2c3c(oc4ccccc4c3=O)C(=O)N2c2nccs2)c1 (stereo not drawn) | i
O=c1c2c(-c3ccc(F)cc3)csc2ncn1CCCc1ccccc1 | 18%
CC1(C)CC(=O)C2=C(C1)N(Cc1ccccc1Cl)C(=O)NC2(C(F)(F)F)C(F)(F)F | i
O=C(C1CCC(C(=O)N2CCCCC2)CC1)N1CCCCC1 (stereo not drawn) | i
Cc1cc(OCC(=O)NNC(=S)NCC2CCCO2)cc(C)c1Cl (stereo not drawn) | i

# 4 entries from above, reformatted.
> Cc1ccc(Cl)c(OCC(=O)N2CCN(c3ncccn3)CC2)c1
  Mtb H37Rv: i
> O=C(CCn1cnc2ccccc2c1=O)Nc1cccc(F)c1
  Mtb H37Rv: i
> CCOc1ccc(NC2=NC(C(=O)NCc3ccccc3)CC(=O)N2)cc1 (stereo not drawn)
  Mtb H37Rv: i
> O=C(Nc1nccs1)C(c1ccccc1)N1CCOCC1 (stereo not drawn)
  Mtb H37Rv: i

# Additional entries.
SMILES | Mtb H37Rv
Cn1c(=O)n(C)c2cc(S(=O)(=O)N3CCOCC3)ccc21 | i
NC(=O)c1ccccc1NS(=O)(=O)c1ccc(F)cc1 | i
COc1cc2[nH]c(=S)n(CCc3cnc[nH]3)c(=O)c2cc1OC | 1%
COc1ccccc1C(=O)OC1CCCN(C)C1 (stereo not drawn) | 0%
c1ccc(Cn2c(Nn3cnnc3)nc3ccccc32)cc1 | i
COc1ccc(CCNC(=S)NCCc2ccccc2)cc1 | i
CCOC(=O)c1c(NC(=S)Nc2ccc(Br)cc2)sc2c1CCCC2 | i
COc1ccc(OC)c(C(=O)C(C)=O)c1 | i
O=C(NCCCN1CCOCC1)C1CC2CCC1C2 (stereo not drawn) | i
NS(=O)(=O)c1ccc(NC(=O)CCCN2C(=O)c3cccc4cccc(c34)C2=O)cc1 | i
COc1ccc(C(C)C)cc1S(=O)(=O)N1CCc2ccccc2C1 | 3%
Cc1ccccc1CN1CCN(C2CCN(Cc3ccccc3)CC2)CC1 | i
CCc1ccc(Nc2nc(C)cc(C)c2C(N)=O)cc1 | 5%
Cc1cc(Cl)ccc1NC(=O)CSC1CCCC1 | i
CC(=O)Oc1ccc2c(=O)c(-c3ccc(Br)cc3)coc2c1 | 9%
CC(C)(C)c1ccc(-c2nnc3sc(-c4ccncc4)nn23)cc1 | 26%
CCn1c(SCC(=O)Nc2nc(-c3ccccc3)c(C)s2)nnc1C(C)Oc1ccccc1 (stereo not drawn) | 3%
OC(COCC1COc2ccccc2O1)CN1CCOCC1 (stereo not drawn) | i
COc1cc(CNc2nn[nH]n2)ccc1OCc1ccc(F)cc1Cl | 0%
Cc1ccc(-n2nnnc2Sc2nc([N+](=O)[O-])nn2C)c(C)c1 | i
O=C(c1ccc2c(c1)OCO2)N1CCCCCC1 | i
CCOC(=O)c1ccc(NC(=O)CSc2nnnn2-c2ccccc2Cl)cc1 | i
COc1ccc(N2C(=O)NC(=O)/C(=C\c3ccc(OC)c(OC)c3OC)C2=O)cc1 | i
O=C(COc1ccccc1F)Nc1nnc(-c2ccc(Cl)cc2Cl)s1 | i
O=C(CSCCSCC(=O)Nc1ccc(Cl)cn1)Nc1ccc(Cl)cn1 | i
Cc1cc(=O)oc2cc(OC(C(=O)O)c3ccccc3)ccc12 (stereo not drawn) | i
C=CCN1C(=O)C(c2c(O)n(CCCC)c3ccccc23)=NC1=S | 9%
C=CCc1c(C)[nH]c2ccccc2c1=O | i
CC(NC(=O)c1ccccc1Br)c1nnc(SCC(=O)NC2CCCCC2C)n1C (stereo not drawn) | 5%
COc1ccc(Cl)cc1NC(=S)NCCn1cc(Cl)cn1 | i
CS(=O)(=O)N(Cc1ccccc1)c1ccccc1C(=O)Nc1ccc(F)cc1 | i
Cc1cc(C)c(NC(=O)CN(c2ccc(Cl)cc2C)S(C)(=O)=O)c(C)c1 | i
